Calb FLC: affects C. albicans growth with fluconazole; C. albicans CaCi-2 (fluconazole-resistant clinical isolate) + fluconazole, Alamar Blue growth, 48 h; growth inhibition, % (no concentration beside the values); hit rate 0.57% among 300,000;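 active means most replicates above 75%; inconclusive means exactly half above 75%; inactive means most below 75%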;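 further: all wells also contain fluconazole at 8 µg/ml as a sub-toxic cotreatment; 0% = median of DMSO wells and 100% = median of geldanamycin control wells; wells of about 8 µL received 7.5 nL stock; the first replicate is given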
Beta cell apopt: beta cell apoptosis inhibition; INS-1E cytokine-induced death, ATP luminescence, 48 h; percent of positive-control rescue, neutral wells zero; protection from apoptosis, % (test concentration not listed); hit rate 0.8% among 300,000; AID 435005;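 active means all replicates at 75% or more, or half of them and the mean; inconclusive means half reach 75% but not the mean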;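 further: 0% = cytokine-treated negative control wells and 100% = positive control rescue; higher means more ATP so stronger rescue from cytokine killing; wells of about 40 µL received 100 nL stock; the first replicate is given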
LANA-H2A inh: blocks KSHV LANA binding to histone H2A/H2B | Q9QR71 | AID 2629 | inhibition, % (concentration not given with the values) | cell-free LANA-H2A/H2B peptide, fluorescence polarization | hit rate 0.6% among 320,000; in the data active means inhibition mostly above about 10%, no sharp cut-off; inactive means mostly below about 6.7%;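 further: stock transfer was 7.5 nL into about 10 µL; 0% = median of vehicle wells and 100% = median of positive control wells; one replicate is shown; the record names a cut of 25% in any replicate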
T cruzi repl: T. cruzi replication inhibition. T. cruzi beta-gal in NIH3T3, luminescence, 90 h. inhibition, % (no concentration beside the values). hit rate 1.4% among 300,000. AID 1885;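 active means mean inhibition across valid replicates above about 55%, limit read from the data; inconclusive means mean below that limit but half or more replicates reach it; inactive means mean below it, under half of replicates reach it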;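 further: signal also drops with host cell toxicity which is not excluded here; 0% = plate median of DMSO wells and 100% = zero luminescence signal; higher percent means less beta-gal luminescence so fewer parasites; stock transfer was 50 nL into about 50 µL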
UCH37 inh: inhibitors of human deubiquitinating enzyme UCH37 | hit rate 0.33% among 330,000 | Q9Y5K5 | inhibition, % (no concentration beside the values) | purified proteasome/UCH37, Ub-AMC cleavage fluorescence | AID 588478;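 active means mean of two replicates above 20%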;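 further: 0% = compound-free wells with enzyme and 100% = wells lacking proteasome; stock transfer was 100 nL into about 20 µL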
Target sequence (Q9Y5K5 whole entry, looked up): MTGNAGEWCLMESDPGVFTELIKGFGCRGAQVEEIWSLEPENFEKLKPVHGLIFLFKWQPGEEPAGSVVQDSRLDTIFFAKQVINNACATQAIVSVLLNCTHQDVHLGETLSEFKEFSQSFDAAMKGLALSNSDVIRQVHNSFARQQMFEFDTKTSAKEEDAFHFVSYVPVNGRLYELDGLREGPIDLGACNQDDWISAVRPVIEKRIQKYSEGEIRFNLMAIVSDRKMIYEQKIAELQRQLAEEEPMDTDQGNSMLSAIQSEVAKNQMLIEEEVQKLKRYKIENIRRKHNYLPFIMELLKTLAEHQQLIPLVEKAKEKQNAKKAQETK
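system = Proteasome-associated human UCH37 deubiquitinase | amount = 0.15 nM proteasome as dispensed | medium = pH 7.4 Tris-HCl (50 mM) with ovalbumin, ATP-MgCl2, DTT | incubation = 30 min preincubation with enzyme, 25 min cleavage at room temperature | detection = AMC fluorescence 355/460 nm | read-out basis = percent inhibition | controls = no-proteasome and no-compound wells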
A1 inh: inhibitors of the anti-apoptotic protein A1, read as caspase activation; hit rate 0.066% among 330,000; MEF A1-2A-BIM cells, Caspase-Glo 3/7 luminescence, 3 h; percent of clofoctol response, vehicle zero; caspase activation, % (no concentration beside the values);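 active means over half of replicate activation scores above 10%, or exactly half above 10 with the replicate mean above 10; inconclusive means replicate mean below 10 yet half the replicates above 10; inactive means over half of replicates below 10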;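 further: wells of about 30 µL received 50 nL stock; many hits fall short of the cut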
Beta2AR agonist: human beta-2 adrenergic receptor agonism by FAP. AID 504454. Am2.2-beta2AR cells, FAP receptor internalization, flow cytometry; reference of the scale not given here. P07550. hit rate 0.43% among 340,000. response, % (test concentration not listed);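 active means response above a set limit, near 3 SD of response in nonfluorescent compounds, cut at about 42% in these data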;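 further: stock transfer was 100 nL into about 11 µL; a reference agonist was the positive control; negative values mostly stem from fluorescent compounds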
Target sequence (P07550 whole entry, looked up): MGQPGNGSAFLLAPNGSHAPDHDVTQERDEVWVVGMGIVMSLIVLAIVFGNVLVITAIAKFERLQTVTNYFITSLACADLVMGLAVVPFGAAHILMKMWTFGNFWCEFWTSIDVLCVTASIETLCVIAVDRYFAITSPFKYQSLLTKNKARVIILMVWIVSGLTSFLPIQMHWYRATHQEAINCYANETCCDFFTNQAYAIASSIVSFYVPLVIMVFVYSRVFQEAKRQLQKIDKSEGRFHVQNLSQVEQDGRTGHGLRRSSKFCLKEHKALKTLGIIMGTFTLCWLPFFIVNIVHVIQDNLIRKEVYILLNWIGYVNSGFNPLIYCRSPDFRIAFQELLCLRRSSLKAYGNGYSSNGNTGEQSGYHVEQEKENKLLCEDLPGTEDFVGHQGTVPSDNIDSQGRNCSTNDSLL
RanGTP-Impb inh: disruptors of Ran-importin-beta complex formation – biochemical, FRET, CFP-Ran, YFP-importin-beta, homogeneous, primary screen. cell-free CFP-Ran/YFP-importin-beta FRET ratio. inhibition, % (test concentration not listed). hit rate 1.1% among 300,000;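 active means most replicates above 15%; inconclusive means exactly half above 15%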;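 further: 0% = DMSO wells and 100% = Ran loaded with GDP instead of GTP; wells of about 40 µL received 100 nL stock; the first replicate is given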
An asterisk follows results filed as active; u = inconclusive; x = not tested or not shown.

SMILES	Calb FLC	Beta cell apopt	LANA-H2A inh	T cruzi repl	UCH37 inh	A1 inh	Beta2AR agonist	RanGTP-Impb inh
CN(C)C(=O)CCC(=O)N1CCCCC1C(=O)Nc1ccc(Oc2ccccc2F)cc1 (configuration not stated)	2	0	1.7	6	1.6	2.9	-3	-0.3
Cc1nn(CCc2nn[nH]n2)c2nc(-c3ccc(C4CCCCC4)cc3)cc(C(F)(F)F)c12	-4	32	1.5	25	-145	0.8	23	-0.4
N#Cc1nc(COc2ccccc2)oc1N1CCC(Cc2ccccc2)CC1	3	2	0.3	21	2.2	-0.1	10	0.8
OCCCNc1ncnc2oc(-c3ccccc3)c(-c3ccccc3)c12	-2	15	4.3	23	-99	0.2	20	-3.6
COc1ccc(C(=O)Nc2ccc(S(=O)(=O)N(C)c3ccccc3)cc2)cc1	-6	x	2.3	6	2.3	0.1	-1	0.1
C#CCSc1nnc(C)c(C)n1	23	-4	-4.3	-1	3.6	-1.9	-1	1.3
Cc1onc(-c2ccccc2Cl)c1C(=O)OCC(=O)Nc1cccc(S(=O)(=O)N2CCOCC2)c1	3	9	-0.7	-13	3.6	0.6	4	1.6
Cc1ccc(S(=O)(=O)N2CCCC(C(=O)NCc3cccnc3)C2)cc1Cl (configuration not stated)	-5	-2	-1.6	11	-1.6	1.4	4	-1.6
Cc1cccc(N2CCN(C(=O)C3CCN(c4nnc(-n5cccc5)s4)CC3)CC2C)c1 (configuration not stated)	23	2	7.6	17	2.7	-0.1	7	-0.3
COc1cc([N+](=O)[O-])ccc1NC(=S)N1CCN(c2ccccn2)CC1	18	2	4.4	-7	1.4	-0.9	-16	u
COc1ccc(-n2c(SCC(N)=O)nc3sc4c(c3c2=O)CCN(C)C4)cc1	4	-9	2.1	-4	-2.3	0.0	-4	3.8
COc1cc(/C=C/C(=O)OCC(=O)NCc2ccco2)ccc1OC(F)F	-4	-1	8.4	-5	-5.1	0.2	0	-0.3
Cc1ccccc1-c1ocnc1C(=O)Nc1ccccc1NC(=O)c1ccccn1	-4	6	-2.6	11	2.1	0.1	-10	0.2
COc1ccc(OC)c(NC(=O)Cn2cc(C#N)c3cc(Br)ccc32)c1	-4	8	-6.8	33	3.5	-0.3	6	-3.1
Clc1cccc(Cl)c1CNC1CCCC1	-14	-7	-0.7	-3	1.2	-1.1	-3	6.7
CCc1cccc(NC(=O)CC2SC(N3CCCC3)=NC2=O)c1 (configuration not stated)	x	-3	-1.7	x	-1.1	0.0	-2	x
O=[N+]([O-])c1cccc(C2NCC(c3ccccc3Cl)c3c2[nH]c2ccccc32)c1 (configuration not stated)	-5	9	-3.8	45	2.5	-0.2	14	-2.1
O=C(Nc1ccc(Cl)c(Cl)c1)O/N=C/c1ccncc1	-3	17	6.4	-2	x	0.2	-2	1.3
COc1ccc(NC(=O)CCC(=O)OCc2ccc(Br)cc2)cc1	-8	2	-2.7	0	0.2	0.4	3	2.7
Cc1ccc(C(=O)N2CCN(c3ccc(NC(=O)c4cc(C)cc(C)c4)cc3)CC2)cc1	-10	-8	0.3	-2	1.2	-0.8	4	8.0
O=C(/C=C/c1ccc(Br)cc1)NC(=S)N1CCOCC1	-5	-4	-0.2	-18	4.0	0.1	3	0.5
CC(C)=CCC/C(C)=C/CC/C(C)=N/O	-16	x	12*	-7	x	-0.9	5	1.6
CCc1ccccc1NC(=O)C1C(c2ccccc2)C1(Cl)Cl (configuration not stated)	-37	4	-2.3	-3	0.4	0.5	2	u
Cc1nc(SCC(=O)NCCc2ccccc2)n[nH]1	4	-2	-2.1	-6	0.0	0.0	0	-1.1
Cc1ccccc1NC(=O)C1Cc2ccccc2C(=O)O1 (configuration not stated)	1	-5	-3.9	-12	1.2	-0.1	1	0.8

Fetched by structure from the list above (three):
SMILES	Calb FLC	Beta cell apopt	LANA-H2A inh	T cruzi repl	UCH37 inh	A1 inh	Beta2AR agonist	RanGTP-Impb inh
COc1cc(/C=C/C(=O)OCC(=O)NCc2ccco2)ccc1OC(F)F	-4	-1	8.4	-5	-5.1	0.2	0	-0.3
CCc1ccccc1NC(=O)C1C(c2ccccc2)C1(Cl)Cl (configuration not stated)	-37	4	-2.3	-3	0.4	0.5	2	u
N#Cc1nc(COc2ccccc2)oc1N1CCC(Cc2ccccc2)CC1	3	2	0.3	21	2.2	-0.1	10	0.8

The listing picks up, repeating the two entries before the break.
SMILES	Calb FLC	Beta cell apopt	LANA-H2A inh	T cruzi repl	UCH37 inh	A1 inh	Beta2AR agonist	RanGTP-Impb inh
Cc1nc(SCC(=O)NCCc2ccccc2)n[nH]1	4	-2	-2.1	-6	0.0	0.0	0	-1.1
Cc1ccccc1NC(=O)C1Cc2ccccc2C(=O)O1 (configuration not stated)	1	-5	-3.9	-12	1.2	-0.1	1	0.8
CC1(C)CC(NC(=O)C2CCCCC2)CC(C)(C)N1	-3	-12	-0.6	-7	1.7	0.4	3	4.1
CCN(CC)c1ccc(-n2cc3c(=O)n(C)c(=O)n(C)c3c2)cc1	11	-3	1.3	-3	-92	0.4	-101	-1.3
Cc1onc(-c2ccccc2)c1C(=O)N1CCC(CO)(Cc2ccccc2)CC1	8	-11	0.2	14	5.7	0.0	3	2.5
O=C(NCc1ccncc1)C(=O)NCC1OCCCN1S(=O)(=O)c1cc(F)ccc1F (configuration not stated)	3	-5	6.1	4	0.9	-0.2	2	2.7
CCc1c(C#N)sc(C(N)=O)c1CC	-2	-9	1.4	7	-2.0	0.5	5	0.3
CN(C)C(CNc1ccc(C(N)=O)cc1[N+](=O)[O-])c1ccccc1 (configuration not stated)	-3	1	2.2	19	4.8	1.1	6	0.0
CC(=O)Nc1ccc(S(=O)(=O)NCCN2CCOCC2)cc1	1	1	-4.0	-11	2.8	0.5	-4	-0.5
CC(C)CC(NC(=O)c1ccccc1)C(=O)OCC(=O)Nc1ccc(S(N)(=O)=O)cc1 (configuration not stated)	-17	-6	-0.5	-8	7.8	0.3	4	-0.9
CCN(C(=O)COC(=O)c1ccc(Cl)nc1)C1CCS(=O)(=O)C1 (configuration not stated)	2	-7	-0.3	-1	-3.1	-0.2	1	0.6
S=C(NCc1ccccc1)N1CCN(c2ccccc2)CC1	4	-4	-1.8	3	2.6	3.0	-6	2.9
CN1C(=O)c2ccc(S(=O)(=O)c3ccc(C(=O)O)cc3)cc2C1=O	1	-5	-1.7	-5	2.7	0.6	5	-4.2
O=C(COc1cccc2cccnc12)NCC(F)(F)F	5	1	3.1	-7	1.5	0.6	3	1.0
Cc1ccccc1COC(=O)CN1C(=O)NC2(CCCC2)C1=O	3	0	-3.6	-2	1.0	-0.5	-6	-2.7
O=C(CCCc1ccccc1)N=C1SC2CS(=O)(=O)CC2N1c1ccccc1F (configuration not stated)	-2	-13	1.8	11	4.6	1.2	-4	-4.5
CCOC(=O)c1ccc2[nH]c3c(c2c1)CCCC3O (configuration not stated)	28	-6	-6.5	-3	1.3	-0.4	-2	2.5
Cc1cccc(N(C(=O)CCC(=O)Nc2ccccn2)C(C(=O)NC(C)C)c2ccc(O)cc2)c1 (configuration not stated)	-9	1	4.8	x	1.9	0.6	2	x
O=C(Cn1[nH]c(=O)c2ccccc2c1=O)N1CC=C(c2ccccc2)CC1	-3	-1	-2.4	-3	0.8	1.1	-6	1.3
CN(C)S(=O)(=O)c1ccc(NC(=O)C2CC(=O)N(Cc3ccccc3)C2)cc1 (configuration not stated)	-4	3	-1.2	-9	4.2	-0.2	-5	1.2
CC(C)(C)C(=O)CSc1nc2c(c(-c3cccs3)c1C#N)CCC2	9	11	2.3	35	-17	0.1	10	62*
O/N=C(\CN1CCCCC1)c1ccccc1	-6	-6	-0.3	-1	x	1.2	-12	0.8
OCCn1c(Cl)nc2ccccc21	4	-6	0.6	6	0.1	-0.7	-3	-0.8
COc1ccccc1COCC(O)CN(Cc1ccco1)Cc1ccccc1O (configuration not stated)	9	-4	1.0	-11	2.9	-0.1	3	3.5
CN1CCN(c2ccc(Cl)cc2NC(=O)c2ccc([N+](=O)[O-])cc2)CC1	-1	3	-0.1	9	1.7	0.0	-2	2.7
COC(=O)c1c(C)nc2ccccc2c1C(=O)O	9	x	2.7	-6	0.3	1.5	13	0.4
Cc1ccc(CN2CCN(Cc3ccc(OCCO)cc3)CC2CCO)o1 (configuration not stated)	-11	-5	-1.9	-9	0.2	0.6	0	7.7

RanGTP-Impb inh: hit marks shown above
SMILES	LANA-H2A inh	UCH37 inh	Beta2AR agonist	RanGTP-Impb inh
CC(C)(C)C(=O)CSc1nc2c(c(-c3cccs3)c1C#N)CCC2	2.3	-17	10	62*

Additional structures
SMILES	Calb FLC	Beta cell apopt	LANA-H2A inh	T cruzi repl	UCH37 inh	A1 inh	Beta2AR agonist	RanGTP-Impb inh
Cc1cc2oc(=O)cc(CN3CCC(C)CC3)c2cc1C	-2	4	1.5	5	-0.5	1.5	-20	2.4
C[C@H]1CN([C@@H](C)CO)C(=O)c2cccc(NC(=O)C3CC3)c2O[C@H]1CN(C)Cc1ccc(C(F)(F)F)cc1	x	-9	-5.2	x	4.5	1.7	-6	x
C=CCOc1nc2c(c(=O)n(C)c(=O)n2C)n1C	-1	3	-4.1	2	0.0	0.5	-1	-0.2
Cc1cccc2cc(CN(CC3CCCO3)C(=O)NC3CCCCC3)c(=O)[nH]c12 (configuration not stated)	3	-1	-1.6	15	-5.6	-1.1	1	1.0
CCOC(=O)CC(=O)Nc1c(C)cc(C)cc1C	-1	-6	-0.3	-9	0.4	0.3	-1	4.1
COc1ccc(C2=NOC(Cn3nc(-c4ccccc4)cc3C(=O)NCc3ccc(C)cc3)C2)cc1 (configuration not stated)	x	4	2.5	x	1.1	-0.6	-7	x
C/C(N)=C(/C#N)C(=O)COC(=O)c1cc(S(=O)(=O)N2CCCCC2)ccc1C	-3	-1	2.9	16	4.0	0.5	-7	-5.9
Cc1nn(CC#N)c(=O)n1N(C)c1ncc(C(F)(F)F)cc1Cl	13	1	7.6	-4	2.0	0.4	1	2.4
Cc1nc(Nc2ccc3c(c2)OCCO3)c2c(C)c(C)sc2n1	44	8	-4.0	-7	0.3	0.5	-3	-2.4
O=C(CCc1ccccc1)NCC(c1ccco1)N1CCc2ccccc21 (configuration not stated)	-5	8	0.1	6	1.7	0.5	14	-4.4
COc1ccc(CCN2C(=O)C3C4CCC(C4=C(C)C)C3C2=O)cc1OC (configuration not stated)	-11	-9	3.5	1	4.8	1.5	5	-3.5
Cc1ccc(CSc2nnc(-c3cccc4ccccc34)o2)cc1	x	2	-2.5	x	-4.0	0.6	-1	x
O=C(Cn1nnc(-c2ccccc2NC(=O)c2ccccc2F)n1)NCc1ccco1	-6	x	0.3	-6	0.2	2.5	-2	0.3
O=C(Nc1nnc(C2CCCO2)s1)c1cccs1 (configuration not stated)	37	-4	-0.2	4	4.2	-1.4	-1	7.3
CC1CCCN(CCCNC(=O)c2ccc(CS(=O)(=O)Cc3cccc(Cl)c3)o2)C1 (configuration not stated)	-1	0	-2.8	7	0.0	0.8	-8	-1.6
CCN(CC)c1ccc(C(=O)Nc2ccccc2)cc1[N+](=O)[O-]	-15	-4	-5.9	-26	4.5	0.0	5	-0.8
